Assay outcomes (PubChem)
gsp antagonist – antagonizes gsp, the McCune-Albright syndrome mutation; AID 624288; hit rate 0.4% among 340,000; Potency, µM (highest dose often 76.9 µM), for the others: at the highest dose activity change, negative = inhibition, usual class: inhibitors; gsp-mutant cells, cAMP HTRF, 30 min; control for the full effect not named in the record; active = falling curve of any shape with a large fitted effect; inconclusive = falling curve, mostly with a smaller effect; inactive = flat or rising curve; cell line not stated here;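 further: intracellular cAMP measured with PDE inhibitor Ro 20-1724 present during compound exposure; potency means the concentration at half of the fitted maximal effect; on the % scale 0 is the no-effect control and ±100 the full control effect; nearly all actives have a fitted effect of over 65% in size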
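HTRF cAMP read-out (cAMP-d2 plus anti-cAMP antibody-K in lysis buffer, 30 min RT). Before lysis, cells are exposed to compounds with […] for 30 min at 37C in DPBS containing Ca/Mg, BSA and Tween 20.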
gsp agonist – agonists of gsp mutant (McCune-Albright syndrome) | gsp mutant cells, cAMP HTRF, 30 min; control for the full effect not named in the record | Potency, µM (doses to about 76.9 µM), for inactives: at the highest dose activation (cAMP increase), most hits filed as activators | hit rate 0.13% among 340,000; active = well fitted activation curve with a large enough effect; inconclusive = small, poorly fitted or top-dose-only effect, or another doubt; inactive = no such curve, though single readings can be large or run the other way; cell line not stated here;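 further: phosphodiesterase inhibitor Ro 20-1724 added with compounds to block cAMP breakdown; potency means the concentration at half of the fitted maximal effect; nearly all actives have a fitted effect of over 60% in size; about a fifth of the inactives were tested at one dose only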
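Cells stably selected in G418 were plated at 2000/well, grown 16-24 hr, then given compounds in DMSO with the PDE inhibitor […] (300 uM solution added) for 30 min at 37C; cAMP was read by HTRF.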
D2 ag – agonists of human D2 dopamine receptor (beta-arrestin); activation, % (concentration not given with the values); DiscoveRx PathHunter D2 beta-arrestin, luminescence, 90 min; 100% = 57 uM dopamine signal; hit rate 0.084% among 360,000; P14416; AID 624465; in the data active = activation above about 40%; inconclusive = about 15% to 40%; inactive = below about 15%; further: compound concentration not given in the record; the text of the record calls up to 30% inactive
Target sequence (P14416 whole entry, looked up): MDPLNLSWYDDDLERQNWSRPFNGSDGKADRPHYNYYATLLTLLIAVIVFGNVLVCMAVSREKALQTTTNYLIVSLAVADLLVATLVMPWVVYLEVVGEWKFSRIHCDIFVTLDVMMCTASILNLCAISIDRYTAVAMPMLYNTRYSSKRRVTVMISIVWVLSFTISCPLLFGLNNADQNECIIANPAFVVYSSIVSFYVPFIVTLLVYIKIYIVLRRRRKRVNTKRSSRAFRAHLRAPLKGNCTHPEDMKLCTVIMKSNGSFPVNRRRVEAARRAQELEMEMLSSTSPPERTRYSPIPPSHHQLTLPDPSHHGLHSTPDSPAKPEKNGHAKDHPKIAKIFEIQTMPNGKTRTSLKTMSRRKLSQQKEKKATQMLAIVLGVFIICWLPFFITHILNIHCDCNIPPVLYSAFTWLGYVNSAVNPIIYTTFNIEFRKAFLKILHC
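Agonist mode: compounds alone added to overnight-plated D2 PathHunter cells for 90 min at 37 C, with 57 uM final dopamine (EC100) defining full response. Beta-arrestin recruitment detected by chemiluminescent reagent, read after 1 h at ambient temperature.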
D2 potentiator – human D2 receptor positive allosteric modulation. AID 624464. DiscoveRx D2 beta-arrestin cells, luminescence, 90 min; 100% = 57 uM dopamine signal. potentiation, % (no concentration beside the values). P14416. hit rate 0.23% among 360,000; active = potentiation of 50% or more; inconclusive = 30% to 50%; inactive = 30% or less;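 further: compound concentration not given in the record; tested on top of an EC20 dose of dopamine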
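D2 cells co-treated with compound plus 50 nM dopamine (EC20) for 90 min at 37 deg C to detect potentiation. Beta-arrestin recruitment was read as enzyme-fragment luminescence after 1 h at ambient temperature. Full response was set by 57 uM dopamine.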
Six1-Eya2 inh – inhibitors of human Six1/Eya2 interaction | Q15475+O00167 | AID 651725 | hit rate 0.56% among 360,000 | AlphaScreen GST-Six1/His-Eya2 binding, biochemical; hits give low values; control for the full effect not named in the record | activity change, % (concentration not given with the values); in the data active = activity change below about -65%; inconclusive = about -30% to -65%; inactive = above about -30%; further: on the % scale 0 is the no-effect control and ±100 the full control effect
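Six1/Eya2 binding was read as AlphaScreen signal after compounds were pinned into GST-Six1 plus His-tagged Eya2 (5X stock 250/500 nM) in pH 8.0 Tris/NaCl/TCEP buffer, beads added, then incubated 1 h, 37 C, dark.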
CtBP-E1A inh – inhibitors of CtBP/E1A interaction; activity change, % (no concentration beside the values); hit rate 0.49% among 340,000; AlphaScreen GST-E1A/His-CtBP binding, 1536-well; hits give low values; control for the full effect not named in the record; in the data active means activity change below about -65%; inconclusive means about -30% to -65%; inactive means above about -30%; further: on the % scale 0 is the no-effect control and ±100 the full control effect; compound concentration not given in the record
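In 5 uL wells, 23 nL compound meets equimolar GST-E1A and His-CtBP (5X stock 125 nM each) for 2 h, 37 °C. Beads (5X, 50 ug/mL) then 1 h, 37 °C, dark.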
Active calls of the source: *; ? = inconclusive; · = not tested or not shown; [ ] = another dose, or the depositor's remark.

gsp antagonist | gsp agonist | D2 ag | D2 potentiator | Six1-Eya2 inh | CtBP-E1A inh | SMILES
-3% | -8% | 0.3 | 2 | 0 | 5 | COCCNS(=O)(=O)c1ccc(OCC(=O)OC)c(Cl)c1
· | ? | -5.9 | -4 | 2 | -11 | COc1ccc(CNC(=O)O[C@H]2Cn3c(=O)ccc(=O)n3[C@@H]3CN(S(=O)(=O)c4ccc(C)cc4)C[C@]23O)cc1OC
-16% | -16% | -1.1 | -13 | 1 | · | CCCCNC(=O)CCn1nc(-c2ccccc2)c2ccccc2c1=O
-12% | 0%[15.4 µM] | 2.5 | 9 | -19 | 0 | CCOC(=O)N1CCN(C(=O)CN(c2ccccc2OC)S(=O)(=O)c2ccc(OC)cc2)CC1
· | 22%[15.4 µM] | -1.1 | -40 | -7 | 4 | CCOC(=O)c1c(NC(=O)C2CCCCC2C(=O)O)sc2c1CCCCC2 (centres undefined)
11% | ? | 2.7 | -2 | -5 | · | COc1cccc(CNC(=O)CCCn2c(=S)[nH]c3cc4c(cc3c2=O)OCO4)c1
-10% | · | -2.4 | -2 | 1 | 3 | COc1ccc(-c2cccc(CCC(=O)N3CCN(c4cc(C)ccc4C)CC3)c2)cc1
6% | · | 1.1 | -30 | 2 | 1 | O=S1(=O)CCOCCCN1Cc1cccc(C(F)(F)F)c1
1% | ? | -3.2 | 8 | 4 | 3 | COc1ccc(CCN=C(N)NS(=O)(=O)c2cc(F)ccc2OC)cc1
-17% | -2%[15.4 µM] | -0.6 | -11 | -14 | -7 | COc1ccc2cc(C(=O)N3CCCC(Nc4ccc(F)cc4)C3)n(C)c2c1 (centres undefined)
-11% | 7%[15.4 µM] | -2.5 | -5 | -7 | -24 | C/C(CC(=O)Nc1cc(C)ccn1)=N\NC(=O)c1cccc(C)c1O
6% | ? | -0.5 | -7 | -1 | -3 | O=C(CSc1ccc2nnc(-c3ccncc3)n2n1)Nc1nccs1
-7% | -2% | -0.1 | 3 | 4 | 14 | Cc1cccc(OC(=O)Cn2c(C(F)(F)F)nc3ccccc32)c1
8% | -4% | -2.5 | -40 | 1 | -5 | CCN1CCN(CCNC(=O)c2ccc3c(c2)N(Cc2ccc(F)cc2)C(=O)c2ccccc2S3=O)CC1 (centres undefined)
7% | -37% | 1.6 | 0 | -1 | 7 | COc1cc(S(=O)(=O)N2CCCCC2)ccc1NC(C)=O
2% | -11%[15.4 µM] | -2.4 | -6 | -2 | 8 | Cc1nn(Cc2c(F)cccc2Cl)c(=O)c2ccccc12
· | -114%[inhibitor] | 1.3 | -14 | 6 | 4 | COc1ccc(Cl)cc1NS(=O)(=O)c1cccc(C(=O)NCCCN2CCOCC2)c1
3% | 27%[15.4 µM] | 1.1 | -8 | -3 | 2 | COc1ccc(C(=O)NCCS(=O)(=O)N2CCOCC2)cc1
7% | -27% | -3.6 | -2 | 4 | 10 | COc1cc(F)c(C2=CC(=O)CC(C)(C)C2)cc1F
-5% | 1% | -0.8 | 0 | 3 | 21 | CCOc1ccsc1C(=O)O
· | · | -2.3 | -5 | 1 | 4 | O=C(c1[nH]c(C(F)(F)F)nc1-c1ccccc1)N1CCN(c2ccccn2)CC1
-3% | 5% | -3.8 | 0 | -4 | 16 | Cc1ccc(Cc2ccccc2C(=O)O)cc1
-10% | 2% | -0.9 | 2 | -2 | -7 | CCSc1nc(O)cc(=O)n1-c1ccc(OC)cc1
-3% | 12% | 1.4 | 0 | 1 | -15 | C=CCSc1nnc(-c2cc(Br)ccc2N)c(=O)[nH]1
-4% | 5% | -0.6 | -14 | 2 | 1 | O=C(NCCCN1CCOCC1)c1ccc(CS(=O)(=O)c2cccc(C(F)(F)F)c2)o1
1% | 1% | -1.1 | -25 | -8 | -1 | Cc1ccc(SCc2cn3cccnc3n2)cc1
? | -3%[15.4 µM] | -6.7 | -46 | 74 | -23 | O=C(NC1(O)C(=O)c2ccccc2C1=O)c1ccc(C(F)(F)F)cc1
-12% | 16% | -2.0 | -12 | -9 | -2 | CC(=O)Oc1ccc2c(=O)c(Oc3ccccc3[N+](=O)[O-])coc2c1
13% | -17% | -5.8 | -8 | 21 | 11 | O=C(COC(=O)C12CC3CC(CC(C3)C1)C2)Nc1nccs1
-6% | -2% | -1.4 | -13 | 11 | · | COC(=O)c1c(C)noc1-c1ccc(Cl)cc1
0% | 9% | -4.8 | -5 | ? | · | CCOc1ccc(Nc2ccc(S(=O)(=O)N3CCN(C)CC3)cc2[N+](=O)[O-])cc1OCC
35µM* | 3% | 0.2 | 4 | -25 | ? | Cn1c(SCc2cccc([N+](=O)[O-])c2)nc2c(c1=O)SCC2
-5% | 5%[15.4 µM] | 2.5 | -1 | 3 | -1 | O=Cc1cn(Cc2ccccc2)nc1-c1cccnc1
1% | -9%[15.4 µM] | -6.3 | -14 | 20 | 0 | CC(Sc1ncccn1)C(=O)N1CCc2ccccc21 (centres undefined)
17% | -1% | -3.5 | -5 | 0 | 6 | COCC1CCN(C(=O)C2CCC(=O)N(CC3CCCCC3)C2)CC1 (centres undefined)
2% | -3% | 3.8 | 12 | 2 | -1 | NNC(=O)c1cccc(COc2ccccc2Br)c1
-11% | -80%[inhibitor] | -1.5 | -28 | -8 | 25 | O=S(=O)(NCC(c1ccco1)N1CCN(c2ccc(F)cc2)CC1)c1ccc(F)cc1 (centres undefined)
-19% | -9% | -0.1 | -22 | -14 | -10 | Cc1onc(-c2ccccc2)c1C(=O)Nc1nc2c(s1)CCCC2
8% | 30% | 9.3 | -24 | 0 | 15 | O=C(CC(=O)NC1CCCCC1)N/N=C/c1ccccc1Cl
-7% | 2%[15.4 µM] | -1.4 | -6 | -4 | -2 | COc1ccccc1N1CCN(c2ccc(N3C(=O)CCC3=O)cc2[N+](=O)[O-])CC1
4% | -52%[inhibitor] | -2.0 | 5 | -2 | 0 | CCOC(=O)c1cc(C(C)=O)n2ccccc12
4% | 1% | -5.6 | -38 | 20 | 13 | Cc1ccc(C(=O)CN(Cc2ccccc2)C2=NCCS2)cc1
-20% | 5% | 2.5 | 12 | -5 | -14 | COCCn1c(C)cc(C(=O)COC(=O)c2ccc(Cl)c(S(N)(=O)=O)c2)c1C
9% | -5% | -3.0 | -9 | -1 | 0 | CCOC(=O)C1CCN(C2CC(=O)N(c3ccc(OCC)cc3)C2=O)CC1 (centres undefined)
0% | 13%[15.4 µM] | -0.5 | -1 | -3 | 6 | COc1cc(OC)c(NC(=O)N2CCOCC2)cc1Cl
24% | -3% | -6.4 | -8 | -10 | -2 | O=C(Cn1ccc([N+](=O)[O-])n1)NCC1CCCO1 (centres undefined)
-6% | -43%[inhibitor] | 0.4 | -8 | -7 | -3 | CCC(C)[C@H](NC(=O)N1CCn2c1nc1ccccc12)C(=O)NCc1ccc(OC)cc1 (some centres undefined)
-8% | 11%[15.4 µM] | 0.5 | -8 | 7 | 7 | CCCCNC(=O)/C(C#N)=c1\s/c(=C\c2ccccc2OC(F)F)c(=O)n1CCCOC
7% | -2% | -1.2 | -1 | 10 | 13 | O=C1c2ccccc2C(=O)N1CCOCCN1C(=O)c2ccccc2C1=O
8% | 22% | -2.6 | -3 | 12 | 26 | Cc1cc(C)nc(CCNC(=O)CC2C(=O)NCCN2Cc2ccccc2)n1 (centres undefined)
5% | 4% | -4.8 | -26 | 3 | -3 | O=C(CSc1ccccc1)NCC1(N2CCCCC2)CCCCC1
-12% | 9%[15.4 µM] | -1.7 | -1 | -3 | -4 | COc1ccc(/C=N/Nc2ccccc2C(=O)O)cc1Cn1cc([N+](=O)[O-])cn1
-20% | -4% | 1.8 | 6 | -14 | -1 | O=C(Nc1ccc(OCC(=O)N2CCC(Cc3ccccc3)CC2)cc1)c1ccco1
-4%[15.4 µM] | 5% | -7.6 | -19 | 0 | 9 | CCOC(=O)C1=NNC(C(=O)c2ccccc2)C1c1ccc(OC)cc1 (centres undefined)
-11% | -23% | -4.2 | ? | 1 | 8 | CCOC(=O)c1cc(C(=O)c2cc(F)ccc2O)coc1=N
7% | 9% | -5.1 | -16 | 0 | · | Cc1ccc(C)c(NC(=O)CCN2CCN(c3ccccc3F)CC2)c1
0% | 13% | -3.9 | -7 | 1 | 5 | O=C(NCc1ccco1)c1cccc2ccccc12
2% | -5%[15.4 µM] | -7.0 | -5 | 9 | 4 | CC(C)(C)OC(=O)N1CCC(C(=O)N[C@@H](Cc2ccccc2)C(=O)O)(c2ccccc2)CC1
3% | 9%[15.4 µM] | 0.5 | -11 | 1 | 15 | CCn1nc(C)c(C2C(C#N)=C(N)OC3=C2C(=O)CC(C)(C)C3)c1C (centres undefined)
2% | 14% | -0.9 | 2 | 13 | 0 | COc1cc2c(cc1C1NC(=S)NC(C)=C1C(N)=O)CCCC2 (centres undefined)

Additional results follow:
gsp antagonist | gsp agonist | D2 ag | D2 potentiator | Six1-Eya2 inh | CtBP-E1A inh | SMILES
2% | 8% | 1.9 | 6 | 3 | 10 | CC(=O)NCCOc1cccc2cccnc12
-5% | 47% | -3.2 | -6 | -13 | -16 | CC(C)Nc1nc(NC(C)C)nc(C(=O)OCCO)n1
-1% | -26% | -0.6 | -6 | 2 | 9 | COC(=O)c1nn(-c2c(C)n(C)n(-c3ccccc3)c2=O)cc1O
1% | -6% | 1.1 | 15 | 1 | 4 | CN(CC(=O)Nc1ccccc1C(F)(F)F)C(=O)C1CCN(C(=O)c2ccc(Cl)cc2)CC1
18% | 8% | -4.5 | -5 | 1 | 1 | Cn1c(SCC(=O)Nc2nccs2)nnc1C1CC1
8% | 0% | -1.2 | -6 | -16 | 1 | O=C(c1cc2ncc(Br)cn2n1)N1CCN(C(=O)c2ccco2)CC1
-61% | 31%[15.4 µM] | -2.6 | -8 | 6 | -3 | CCOc1cccc2cc(C(=O)NCCC3=CCCCC3)c(=O)oc12
9% | 18% | -8.2 | -16 | 2 | 0 | CC(C)CCNC(=O)C1CCN(Cc2cccc(OCc3ccccc3)c2)CC1
4% | 1% | -4.9 | 5 | -10 | 5 | CC(=O)c1cc(C#N)c(SCc2ccccc2C#N)nc1C
-3%[15.4 µM] | ? | -0.8 | 3 | -6 | 4 | CCCC(=O)c1ccc(N2CCN(C(=O)c3ccccc3Br)CC2)c(F)c1

Reformatted: results already given
compound: Cn1c(SCC(=O)Nc2nccs2)nnc1C1CC1
  gsp antagonist = 18%
  gsp agonist = 8%
  D2 ag = -4.5
  D2 potentiator = -5
  Six1-Eya2 inh = 1
  CtBP-E1A inh = 1

compound: CC(=O)NCCOc1cccc2cccnc12
  gsp antagonist = 2%
  gsp agonist = 8%
  D2 ag = 1.9
  D2 potentiator = 6
  Six1-Eya2 inh = 3
  CtBP-E1A inh = 10

An unsorted share of the library. Share with any hit: about 1.4%.
